Source: PubChem BioAssay
Env fusion inh = inhibitors of HIV Env-mediated cell fusion | inhibition, % at 12.3 µM | HeLa-JRFL Env/CEM21 cell fusion, luciferase | 360,000 compounds, 1.1% hits;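 active means mean replicate inhibition score of at least 50 and every replicate individually at or above 50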;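 further: 0% = plate neutral controls and 100% = maraviroc near 300 nM; one replicate is shown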
CSC inhib = blocks cancer stem cells; cancer stem cell-like cells viability, luminescence; inhibition, % at 7.5 µM; 300,000 compounds, 1.1% hits;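 active means mean at 75% or more and at least half the replicates too; tested in HMLE shEcad cells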;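 further: 0% = median of negative and 100% = median of positive control wells; the first replicate is given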
Rce1 inhib = blocks yeast Ras-converting enzyme; calls only; yeast membranes, quenched prenylated peptide cleavage fluorescence; 290,000 compounds, 0.27% hits; Q03530; AID 2563;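 active means fall in fluorescence gain of 50% or more versus controls, with final raw signal at or below 3038400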;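 further: plate controls were neutral control wells for no effect and wells lacking membranes for full effect; tested at 10 µM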
PABP FP inh = PABP-poly(A) binding inhibition; PABP-poly(A) RNA binding, fluorescence polarization; AID 2014; inhibition, % at 35 µM; P11940; 290,000 compounds, 1% hits;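 active means 50% or more with normal probe brightness, or confirmed in later tests; about a fifth of its hits are not listed in these tables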;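 further: calls also rest on retests at 20 µM and on dose response follow-up; controls were probe without protein and protein plus probe with vehicle; some compounds called inactive have numbers as strong as hits; many hits fall short of the cut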
Target sequence (P11940 whole entry, looked up): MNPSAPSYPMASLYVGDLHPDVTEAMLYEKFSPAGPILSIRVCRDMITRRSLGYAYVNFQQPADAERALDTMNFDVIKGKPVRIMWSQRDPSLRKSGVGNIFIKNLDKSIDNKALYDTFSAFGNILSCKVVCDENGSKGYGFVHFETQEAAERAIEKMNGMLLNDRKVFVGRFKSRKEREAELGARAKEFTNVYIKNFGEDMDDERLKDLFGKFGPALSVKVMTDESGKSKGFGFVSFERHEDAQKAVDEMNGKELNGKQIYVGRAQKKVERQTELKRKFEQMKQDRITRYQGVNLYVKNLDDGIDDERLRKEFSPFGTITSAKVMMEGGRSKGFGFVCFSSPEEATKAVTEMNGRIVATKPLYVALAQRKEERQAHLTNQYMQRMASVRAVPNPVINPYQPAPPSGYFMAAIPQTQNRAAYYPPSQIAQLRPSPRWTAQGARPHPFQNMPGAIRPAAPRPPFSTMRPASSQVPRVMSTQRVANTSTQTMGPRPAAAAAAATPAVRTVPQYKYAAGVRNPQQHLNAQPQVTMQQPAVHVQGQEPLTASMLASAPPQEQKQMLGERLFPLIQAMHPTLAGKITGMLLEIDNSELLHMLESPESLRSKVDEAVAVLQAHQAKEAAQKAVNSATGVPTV
eIF4H FP inh = inhibitors of RNA binding by human eIF4H; AID 2012; eIF4H fluorescence polarization binding assay; 290,000 compounds, 0.94% hits; inhibition, % at 35 µM;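 active means 50% or more with normal probe brightness, or confirmed in later tests; about a fifth of its hits are not listed in these tables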;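 further: calls also rest on retests at 20 µM and on dose response follow-up; 0% = protein and probe with vehicle and 100% = probe without protein; strong numbers were not always called active; many hits fall short of the cut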
Yeast UUG start = yeast start codon fidelity modulation; S. cerevisiae UUG-firefly luciferase reporter, luminescence/redox ratio; activity score, % at 18.7 µM; 350,000 compounds, 0.13% hits;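 active means replicate mean at a twofold rise or more, about +100% in these data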;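 further: firefly luciferase made from a UUG start codon reports start codon fidelity; reporter light over untreated wells divided by growth signal over untreated wells; some hits fall short of that in this replicate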
MT1-MMP act inh = MT1-MMP (human) activation inhibition; P50281; GFP/RFP ratio change, % at 20 µM; AID 651647; HT1080 RFP-PRO-GFP cells, GFP/RFP ratio fluorescence, overnight; percent of plate control window, DMSO zero; 360,000 compounds, 0.061% hits;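 active means GFP/RFP ratio change of at least 30% with cell ATP level not reduced by more than half and red fluorescence within 50% of control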; further: strong numbers were not always called active
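Assay system: HT1080 RFP-PRO-GFP cells. Benchmarks: DMSO vehicle wells and RFP-L50D-GFP reporter cell wells. Times: overnight cell settling, then overnight compound exposure, 37 °C, 5% CO2. Compound: 20 µM single dose, 1% DMSO. Read-out basis: GFP/RFP fluorescence ratio.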
MT1-MMP act inh RFP = second read-out of MT1-MMP act inh, no call of its own (marks repeat the call); RFP signal change, %; measured here: RFP expression control read;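 0 = vehicle wells; hits needed this value within 50% of zero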
* = called active by the depositor; i = inactive; · = not tested or not shown. Some of the compounds tested (hit frequency here may not be typical).

SMILES	Env fusion inh	CSC inhib	Rce1 inhib	PABP FP inh	eIF4H FP inh	Yeast UUG start	MT1-MMP act inh	MT1-MMP act inh RFP
Cc1ccc(S(=O)(=O)N2CCCCC2)cc1C(=O)OC1CCCCC1=O (stereo not drawn)	5	16	i	·	·	-9	1	5
O=C(NCC1(c2ccccc2)CCCC1)c1ccco1	7	-13	i	-3	-1	·	0	1
CCOC(=O)C1C(=O)NC(c2ccccc2)=NC1c1ccccc1 (stereo not drawn)	·	-15	i	-3	-2	-4	1	-1
Cc1c(NC(=O)CN2CCN(c3ccc([N+](=O)[O-])cc3)CC2)c(=O)n(-c2ccccc2)n1C	7	·	i	6	4	·	2	-6
CC(=O)Nc1ccc(Oc2ccc(NC(C)=O)c(NC(C)=O)c2)cc1	-7	-1	·	3	-1	·	-6	-3
COc1ccc(NC(=O)c2oc3ccccc3c2NC(=O)C2CCCO2)cc1OC (stereo not drawn)	4	3	i	-2	2	4	·	·
COC(=O)c1ccccc1-n1cccc1C(=O)NP(=O)(N1CCOCC1)N1CCOCC1	-9	-9	i	-3	2	·	0	5
C/C(=N\N=C(N)N)c1ccc(C)c(C)c1	-6	19	i	-6	0	·	0	3
O=C(Nc1cc(S(=O)(=O)N2CCOCC2)ccc1N1CCCCC1)c1ccccc1	6	·	·	·	·	-2	-9	-8
CCN(CC)S(=O)(=O)c1ccc(Oc2ccccc2)cc1	5	·	i	6	3	-11	6	-1
O=C1NCC(Nc2ccccc2)C(=O)N1 (stereo not drawn)	4	·	·	·	·	-12	3	4
COc1cc(-c2nnc(NC(=O)CS(=O)(=O)c3ccc(Cl)cc3)o2)cc(OC)c1OC	-16	·	·	·	·	-10	4	1
Cc1ccc(C)c(NC(=O)CCC(=O)N/N=C/c2cccnc2)c1	·	12	i	1	-3	3	-4	1
O=C(Nc1cccc(F)c1)/C(=C\c1ccco1)NC(=O)c1cccs1	-142	3	i	25	40	-6	-12	1
C(=N\c1nc2ccccc2n1CCN1CCCCC1)/c1cccs1	·	5	i	-1	-5	·	3	5
O=c1cc(C(F)F)oc2c1ccc1ccccc12	·	0	i	1	-3	·	21	4
CCOC(=O)c1[nH]c(C)c(C(=O)N2CCc3ccccc32)c1C	·	47	i	-11	-1	13	0	-9
CN(C)c1ccc(C=Nc2cnn(C)c2C(N)=O)cc1	·	-10	i	6	7	-20	-4	-1
Cc1ccc(NS(=O)(=O)c2c(C)ccc3nsnc23)c([N+](=O)[O-])c1	8	12	i	1	1	-10	-5	-2
O=C(NCc1ccccc1)C(=O)Nc1nc(-c2ccccc2)cs1	-14	30	i	-9	6	-22	8	-3
O=C(Cc1ccccc1)NCC(=O)N1CCCCC1	-12	·	i	-1	5	-12	-3	-1
Cc1ccc(C)c(N2CCN(C(=O)c3cc4ccccn4n3)CC2)c1	·	-18	i	-20	2	-9	-10	-1
CCOC(=O)C1CCN(c2nc(-c3ccc(Br)cc3)nc3ccccc23)CC1	21	25	i	35	-4	·	7	0
Cn1c(SCC(=O)NCCc2ccc(S(N)(=O)=O)cc2)nc2ccccc2c1=O	15	-1	i	-12	-9	·	0	-2
CC(C)C(=O)Nc1ccc(C(=O)N2CCCCCC2)cc1	-4	-9	i	2	-8	-7	3	6

Arranged by count of non-hydrogen atoms (high to low): part of the list above
SMILES	Env fusion inh	CSC inhib	Rce1 inhib	PABP FP inh	eIF4H FP inh	Yeast UUG start	MT1-MMP act inh	MT1-MMP act inh RFP
Cc1c(NC(=O)CN2CCN(c3ccc([N+](=O)[O-])cc3)CC2)c(=O)n(-c2ccccc2)n1C	7	·	i	6	4	·	2	-6
COC(=O)c1ccccc1-n1cccc1C(=O)NP(=O)(N1CCOCC1)N1CCOCC1	-9	-9	i	-3	2	·	0	5
COc1cc(-c2nnc(NC(=O)CS(=O)(=O)c3ccc(Cl)cc3)o2)cc(OC)c1OC	-16	·	·	·	·	-10	4	1
COc1ccc(NC(=O)c2oc3ccccc3c2NC(=O)C2CCCO2)cc1OC (stereo not drawn)	4	3	i	-2	2	4	·	·
Cn1c(SCC(=O)NCCc2ccc(S(N)(=O)=O)cc2)nc2ccccc2c1=O	15	-1	i	-12	-9	·	0	-2
Cc1ccc(S(=O)(=O)N2CCCCC2)cc1C(=O)OC1CCCCC1=O (stereo not drawn)	5	16	i	·	·	-9	1	5
Cc1ccc(C)c(N2CCN(C(=O)c3cc4ccccn4n3)CC2)c1	·	-18	i	-20	2	-9	-10	-1
C(=N\c1nc2ccccc2n1CCN1CCCCC1)/c1cccs1	·	5	i	-1	-5	·	3	5
CCOC(=O)c1[nH]c(C)c(C(=O)N2CCc3ccccc32)c1C	·	47	i	-11	-1	13	0	-9
CC(C)C(=O)Nc1ccc(C(=O)N2CCCCCC2)cc1	-4	-9	i	2	-8	-7	3	6
O=C(NCC1(c2ccccc2)CCCC1)c1ccco1	7	-13	i	-3	-1	·	0	1
O=C(Cc1ccccc1)NCC(=O)N1CCCCC1	-12	·	i	-1	5	-12	-3	-1
O=c1cc(C(F)F)oc2c1ccc1ccccc12	·	0	i	1	-3	·	21	4
O=C1NCC(Nc2ccccc2)C(=O)N1 (stereo not drawn)	4	·	·	·	·	-12	3	4

(continued)
SMILES	Env fusion inh	CSC inhib	Rce1 inhib	PABP FP inh	eIF4H FP inh	Yeast UUG start	MT1-MMP act inh	MT1-MMP act inh RFP
Cn1c(SCC(=O)Nc2ccccc2Br)nnc1-c1cnccn1	-6	-8	i	-4	-7	11	2	2
CCOC(=O)c1ccc(Nc2nc(C(=O)OCC)nc3ccccc23)cc1	·	7	i	7	-10	-10	-1	-7
COc1ccc(OC)c(C2C(C(=O)c3ccccc3)=C(C)Nc3nc4ccccc4n32)c1 (stereo not drawn)	-33	4	i	-2	9	-18	-1	5
O=C(Nc1ccc2nccnc2c1)Nc1ccccc1Cl	7	-1	i	9	14	-8	0	-6
COc1ccc(Cl)c(OC)c1C(=O)NC(=O)Nc1c(F)cc(F)cc1F	3	-7	i	-5	0	-9	2	5
Cc1cc(C)nc(/N=C(\N)Nc2ccc(S(=O)(=O)Nc3nc(C)cc(C)n3)cc2)n1	·	-11	i	1	-8	·	·	·
COc1ccccc1OCc1nc(Cc2ccc(Cl)cc2)no1	·	0	i	0	-22	-6	0	-2
Cc1occc1-c1nnc(SCC(=O)N2CCOCC2)n1Cc1ccco1	-5	-10	i	4	15	-9	1	7
NC(=O)C1CCN(CC(O)CSc2ccccc2)CC1 (stereo not drawn)	-4	-8	i	0	12	·	1	3
Cc1ccc(S(=O)(=O)Cc2ccc(C(=O)N3CCN(Cc4ccccc4)CC3)o2)cc1	15	-13	i	29	48	-4	-4	0
O=C(Cn1cc(C(F)(F)F)ccc1=O)N1CCCc2ccccc21	-3	-8	·	·	·	·	0	9
COc1cc(C)ccc1OCc1cc(C(=O)NC(C)Cn2cncn2)no1 (stereo not drawn)	-21	-9	i	-5	-14	-38	1	5
CC(=O)c1c(N)n(C)c(=O)n(C)c1=O	·	-23	i	1	5	-18	6	5
COc1cccc(NC(=O)c2ccc(NCCCN3CCC(C)CC3)c([N+](=O)[O-])c2)c1	12	-8	i	-9	-6	-7	2	-2
NC(=O)/C=C/C(=O)Nc1ccc(Cl)cc1	11	-4	i	10	0	·	1	2
COc1cc(C(=O)Nc2ccccc2-c2nnn(CC(N)=O)n2)cc(OC)c1OC	·	-2	i	-3	-5	1	-1	-1
COc1ccc2oc(C(=O)OC(C)C(=O)Nc3ccc(N4CCOCC4)cc3)c(C)c2c1 (stereo not drawn)	·	9	·	·	·	-8	-1	4
CCc1[nH]nc2c1C(c1cccnc1)C(C#N)=C(N)O2 (stereo not drawn)	18	7	i	1	-1	-19	-3	8
COc1ccc(NC(C)=O)cc1NC(=O)CN1CCN(CC(=O)Nc2ccc(Cl)cc2)CC1	·	-6	i	10	4	-5	3	-4
NS(=O)(=O)c1ccc(CNC(=O)c2ccc(S(=O)(=O)NCc3ccco3)cc2)cc1	-7	-10	·	·	·	-10	1	3
CCOc1ccc(N2C(=O)CC(N(Cc3ccco3)C(=O)CC)C2=O)cc1 (stereo not drawn)	0	3	i	-15	2	·	-1	2
CSc1ccc(OC2(C)CCN(Cc3ccc(C(C)C)cc3)C2)cc1 (stereo not drawn)	18	·	·	·	·	-6	4	5
COc1ccc(NS(=O)(=O)c2cccc(C(=O)O)c2)cc1	·	-7	i	3	-12	8	·	·
CCOc1ccc(NC(=O)CSc2n[nH]c(=O)n2-c2ccccc2)cc1	-13	3	i	-16	-10	0	4	-3
O=S1(=O)CC(N2CCCCC2)CN1Cc1ccc(F)cc1 (stereo not drawn)	10	·	·	·	·	-18	4	3

Gathered by group, those above containing an NH in an aromatic ring.
SMILES	Env fusion inh	CSC inhib	Rce1 inhib	PABP FP inh	eIF4H FP inh	Yeast UUG start	MT1-MMP act inh	MT1-MMP act inh RFP
CCOC(=O)c1[nH]c(C)c(C(=O)N2CCc3ccccc32)c1C	·	47	i	-11	-1	13	0	-9
CCc1[nH]nc2c1C(c1cccnc1)C(C#N)=C(N)O2 (stereo not drawn)	18	7	i	1	-1	-19	-3	8
CCOc1ccc(NC(=O)CSc2n[nH]c(=O)n2-c2ccccc2)cc1	-13	3	i	-16	-10	0	4	-3

(listing goes on)
SMILES	Env fusion inh	CSC inhib	Rce1 inhib	PABP FP inh	eIF4H FP inh	Yeast UUG start	MT1-MMP act inh	MT1-MMP act inh RFP
Cc1ccc(C(=O)N/C(=C\c2cccc([N+](=O)[O-])c2)C(=O)OCN2C(=O)c3ccccc3C2=O)cc1	-23	-3	i	-12	0	·	8	9
COC(=O)C(C)N=Cc1ccccc1 (stereo not drawn)	-8	·	i	3	-1	-11	1	6
COc1ccc(C)cc1NC(=O)CN1CCN(c2ccccn2)CC1	38	2	i	-12	-6	-6	4	-2
Cc1ccccc1OCCC(=O)N1CCN(S(=O)(=O)c2ccccc2F)CC1	5	2	i	-10	2	-2	0	2
CC1=NNC(=O)C1CC(=O)N/N=C/C=C/c1ccccc1 (stereo not drawn)	7	·	i	-1	-5	·	1	3
CCOc1cc(C(C(=O)NCC2CCCO2)N(C(=O)Cn2nnc3ccccc32)c2ccccc2C(C)=O)ccc1O (stereo not drawn)	-5	·	i	10	-6	·	3	2
Cn1c(N)c(C(=O)COC(=O)C(Cc2ccccc2)NC(=O)c2ccccc2)c(=O)n(C)c1=O (stereo not drawn)	4	-1	i	-1	0	·	0	3
O=C(c1cc2c(=O)n3ccccc3nc2s1)N1CCN(Cc2ccccc2)CC1	0	-7	i	5	-5	-2	0	6
Cc1cc(N2CCOCC2)n2cc(-c3ccc(F)cc3)nc2n1	-6	4	i	-10	-3	·	1	4
O=C1NC(=S)N(C(=O)c2ccc(F)cc2)/C1=C/c1cccnc1	21	-14	i	7	-3	-9	-2	-4
COc1ccc(NC(=O)c2ccc[n+]([O-])c2)cc1	-14	-5	i	-2	8	-7	-3	-2
Cc1ccc(OCC(=O)Nc2ccccc2-c2ccccc2NC(=O)COc2ccc(C)cc2)cc1	91*	31	i	-3	-13	·	-7	-8
CCn1c(SCC(=O)Nc2ccc(N3CCOCC3)cc2)nnc1-c1ccncc1	-14	·	i	1	-1	-15	-1	-1
COc1ccc(-c2cc(C(=O)O)c3sc(N4CCCCC4)nc3n2)cc1OC	-74	-3	i	-1	25	7	10	6
CN(C)S(=O)(=O)c1ccc(C(=O)NCCc2ccco2)cc1	-22	-4	i	16	4	-11	4	3
